RGS16-Gao = RGS16-Galphao interaction regulator (human); 220,000 tested, 0.38% active; bead-based flow cytometry RGS16-Galphao binding, fluorescence; actives lie on both sides; O15492+P09471; binding response (% of control), % at 10 µM; AID 1441;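 active = below 25% or above 175%, edge rows of some plates excepted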;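 note: Galphao activated by GDP with aluminum fluoride before binding; 100% = wells without compound and 0% = beads without RGS; some results beyond the cut were filed as inactive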
PKD1 kinase inh = inhibitors of human PKD1 kinase; PKD1 kinase fluorescence polarization assay; 200,000 tested, 0.056% active; AID 797; inhibition, %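 (about 10 µM by stock and volumes)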;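 active = inhibition of 50% or more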;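 note: controls were vehicle for no effect and a reference inhibitor for full effect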
Target sequence (Q15139 whole entry, looked up): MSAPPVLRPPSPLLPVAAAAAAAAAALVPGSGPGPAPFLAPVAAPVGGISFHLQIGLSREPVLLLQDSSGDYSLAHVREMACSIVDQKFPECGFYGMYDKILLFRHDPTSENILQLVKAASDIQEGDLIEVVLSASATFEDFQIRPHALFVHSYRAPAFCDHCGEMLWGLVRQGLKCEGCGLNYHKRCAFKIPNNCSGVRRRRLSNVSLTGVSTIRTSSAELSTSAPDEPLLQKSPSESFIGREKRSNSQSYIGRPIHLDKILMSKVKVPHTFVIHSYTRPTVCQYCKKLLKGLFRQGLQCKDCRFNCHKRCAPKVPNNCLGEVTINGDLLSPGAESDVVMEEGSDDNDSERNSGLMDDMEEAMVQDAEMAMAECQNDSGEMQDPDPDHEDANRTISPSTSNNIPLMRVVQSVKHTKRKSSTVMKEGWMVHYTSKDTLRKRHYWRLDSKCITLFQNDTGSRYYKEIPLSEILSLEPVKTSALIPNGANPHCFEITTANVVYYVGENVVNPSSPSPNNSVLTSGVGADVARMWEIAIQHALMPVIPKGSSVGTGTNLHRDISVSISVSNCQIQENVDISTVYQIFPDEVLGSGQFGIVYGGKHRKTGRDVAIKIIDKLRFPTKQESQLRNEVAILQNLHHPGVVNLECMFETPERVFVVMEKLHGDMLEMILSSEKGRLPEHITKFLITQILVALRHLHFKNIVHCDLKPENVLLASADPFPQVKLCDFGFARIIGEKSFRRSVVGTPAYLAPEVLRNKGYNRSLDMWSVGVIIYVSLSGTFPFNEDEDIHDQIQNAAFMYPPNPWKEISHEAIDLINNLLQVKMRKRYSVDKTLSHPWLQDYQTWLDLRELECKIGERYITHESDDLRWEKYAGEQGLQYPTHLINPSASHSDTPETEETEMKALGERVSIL
GALR2 agonist = GALR2 (human) receptor agonism | GALR2-expressing cells, agonist activation read-out | activation, %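 (tested at 5 µM)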 | 140,000 tested, 0.48% active;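 active = above mean plus 3 SD of all compounds, about 5% in these data, not always enough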;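 note: 0% = vehicle buffer wells and 100% = reference agonist at full effect; tested in CHO reporter cells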
HSV replic up = HSV replication enhancement; HSV replication augmentation in cells, fold increase; maximum fold increase; 220,000 tested, 0.005% active; AID 1956;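 active = peak rise of 1.5-fold or more in the series; tested in PC3 cells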;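 note: first round at 10 µM; read as green reporter fluorescence; hits show the peak of a series up to 25 µM; 1 = signal of infected wells without compound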
INS promoter inh = TRM-6 insulin promoter activity inhibition. inhibition, % at 2 µM. TRM-6 cells (human fetal islet line), insulin promoter-eGFP reporter, imaging; reporter expression induced with tamoxifen. 130,000 tested, 0.9% active;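 active = inhibition above the mean plus 3 SD, with well images judged a real hit on visual review, cut at about 60% in these data, passing the limit was not always enough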
INS promoter inh cell count = recorded beside INS promoter inh, whose call it bears; normalized cell count, %; measured here: cell count, toxicity; reference of the scale not given here;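 cells exposed to compound for 48 h; stained nuclei by imaging scaled within each plate; lower means fewer cells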
HSV replic up primary fold = also measured in HSV replic up; calls as there; fold increase; compound at 10 µM; measured here: primary screen fold increase 10 uM; tested in PC3 cells;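 GFP signal in the first replicate; 1 = infected wells without compound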
Starred values were filed as active, the others as inactive; i = inactive; nt = not tested or not shown.

Order of values: RGS16-Gao, PKD1 kinase inh, GALR2 agonist, HSV replic up, HSV replic up primary fold, INS promoter inh, INS promoter inh cell count
1. CCCCNC(=O)N(O)C1N(/N=C/c2cccs2)C(=S)SC1(C)C (centres undefined)
→ 100, nt, nt, i, 0.93, nt, nt
2. CC12COC3(C(=O)Nc4ccccc4)CC1CCC32C (centres undefined)
→ 102, -10, nt, i, 1, nt, nt
3. O=S(=O)(NC1CCCCC1NS(=O)(=O)c1ccc(F)cc1)c1ccc(F)cc1 (centres undefined)
→ 100, -1, -0.7, i, 0.88, i, 29
4. O=C(O)CCCNC(=O)c1ccccn1
→ 96, -18, -1.4, i, 0.98, -64, 96
5. N#Cc1cc2c(nc1SCc1ccc(Cl)nc1)CCCCC2
→ 99, nt, nt, i, 0.98, nt, nt
6. N#Cc1ccc(COc2ccc(CCO)cc2-n2nc3ccccc3n2)cc1
→ 93, -5, -0.4, i, 0.95, nt, nt
7. CC[C@@H](NS(=O)(=O)c1ccc(C)cc1)C(=O)Oc1ccc2c3c(c(=O)oc2c1)CCC3
→ 14, -7, 0.6, i, 0.93, -6, 81
8. CCn1c2ccccc2c2cc(N=C3SC(CC(=O)Nc4ccccc4OC)C(=O)N3C)ccc21 (centres undefined)
→ 98, 8, -0.7, i, 0.92, nt, nt
9. Cc1c(NC(=O)C(C)OC(=O)c2c3c(nc4ccccc24)CCC3)c(=O)n(-c2ccccc2)n1C (centres undefined)
→ 95, 1, -1.4, i, 1.2, nt, nt
10. CCOc1cc(CNn2cnnc2)cc(Br)c1OCC(=O)NC1CCCCC1
→ 111, -7, -0.6, i, 0.94, 45, 75
11. N#Cc1c(N)n(-c2ccc(O)cc2)c2nc3ccccc3nc12
→ 70, 11, nt, i, 0.79, nt, nt
12. CCOC(=O)C1(C(C)(C)CC)CC(CSc2nc3ccccc3[nH]2)OC1=O (centres undefined)
→ 102, -3, -1.6, i, 0.97, -59, 127
13. O=C(CCC(=O)N1CCN(c2ccccc2F)CC1)c1ccc(F)cc1
→ 101, nt, nt, i, 1.1, nt, nt
14. O=C(C1=C[C@@H](c2ccc(C(F)(F)F)cc2)C[C@@H](OCCCCO)O1)N1CCOCC1
→ 108, 3, nt, nt, nt, nt, nt
15. COCCN(Cc1cc2cc(C)ccc2n2nnnc12)C(=S)Nc1ccc(C)cc1
→ 101, -2, nt, i, 0.94, nt, nt
16. O=c1cnnc(Nc2ccccc2F)[nH]1
→ 108, 9, nt, i, 0.97, nt, nt
17. C#CCOCCOCCOCCNc1nc(N2CCN(C(=O)C([C@@H](C)CC)n3cc(C(N)CC(C)C)nn3)CC2)nc(N2CCN(C(=O)[C@H](CCC(=O)O)n3cc(C(N)CC(C)C)nn3)CC2)n1 (some centres undefined)
→ 96, -4, nt, i, 0.67, nt, nt
18. Cc1ccc(-n2nnnc2SC(C)C(=O)Nc2ccc(Cl)cn2)cc1 (centres undefined)
→ 101, 2, -0.9, i, 0.89, 31, 97
19. O=C(NCc1ccco1)c1sc2cc(Cl)ccc2c1Cl
→ 94, 0, -1.9, i, 1, 29, 116
20. COCCN(C(=S)Nc1cccc(OC)c1)C(C)c1cccs1 (centres undefined)
→ 115, 3, 0.2, i, 0.93, -26, 84
21. CCN(CC)c1ccc(C2C(C(=O)OC(C)C)C(=O)CC(C)(O)C2C(=O)OC(C)C)cc1 (centres undefined)
→ 106, 4, -1.7, i, 0.91, -42, 93
22. Cc1noc(C)c1S(=O)(=O)N1CCC(C(=O)N2CCN(c3ccc(F)cc3)CC2)CC1
→ 101, -2, -1.1, i, 0.97, 39, 95
23. O=C(NCc1cccs1)c1ccc(N2CCCC2=O)cc1
→ 101, 4, -1.3, i, 0.67, -17, 89
24. O=C(CSc1nnc(-c2cccs2)n1-c1ccccc1)NCC1CCCO1 (centres undefined)
→ 99, -1, 1.9, i, 0.83, -26, 120
25. O=[N+]([O-])c1ccc(O)c(/C=N/NC2=NS(=O)(=O)c3ccccc32)c1
→ 108, 4, nt, i, 1, -67, 32
26. COc1ccc(-c2nn(C)c3sc(C(=O)NCc4ccco4)cc23)cc1OC
→ 92, -7, 0.5, i, 0.83, 19, 99
27. FC(F)(F)c1nc(NCC2CCCO2)c2nnn(Cc3ccccc3Cl)c2n1 (centres undefined)
→ 103, 4, nt, i, 0.93, nt, nt
28. CN(C)CCN(C(=O)c1ccccc1Cl)c1nc2c(Cl)cccc2s1
→ 104, -7, 1.7, i, 0.91, nt, nt
29. COC(=O)c1cc(C#N)c(N2CC(C)OC(C)C2)nc1C (centres undefined)
→ 105, 4, nt, i, 0.96, nt, nt
30. Cc1ccccc1OCC(=O)Nc1ccc2c(c1)OCO2
→ 96, 0, -0.5, nt, nt, nt, nt
31. COc1ccc(/C=C/C(=O)Nc2ccncc2)cc1OC
→ 103, -4, nt, i, 0.99, nt, nt
32. O=C(NCCN1CCOCC1)c1cc2sccc2n1Cc1ccc(F)cc1
→ 94, -12, -0.5, i, 0.98, -16, 107
33. COc1ccc(C(c2c(O)ccc3ccccc23)N2CCOCC2)c(OC)c1 (centres undefined)
→ 105, -2, -1.1, nt, nt, nt, nt
34. O=C(c1ccc(Cl)cc1)N1CCCC(C(=O)N2CCN(c3ccccc3)CC2)C1 (centres undefined)
→ 104, nt, nt, i, 1.1, nt, nt
35. O=C(CN1CCCCC1)Nc1ccc(Br)cc1[N+](=O)[O-]
→ 96, 4, nt, i, 0.96, 53, 93
36. CCOC(=O)CNC(=O)CSc1nccn1Cc1ccco1
→ 102, -8, nt, i, 0.87, nt, nt
37. O=C(NCCOc1cccc(Cl)c1Cl)c1cc(-n2cnnc2)ccc1Cl
→ 101, -5, -2.4, i, 0.9, nt, nt
38. COC(=O)c1[nH]c2c(c1C)C(=O)CC(c1ccccc1)C2 (centres undefined)
→ 96, -1, 0.2, nt, nt, -320, 5
39. Cc1ccc(C)c(OCC(=O)N/N=C/c2c(C)nn(-c3ccccc3)c2Cl)c1
→ 105, -1, -2.1, nt, nt, 0, 100
40. CN=c1scc(-c2ccc(OC)cc2)n1/N=C(\C)c1cccnc1
→ 86, 1, nt, i, 0.95, -246, 148
41. C#CCOc1c(Br)cc(/C=N\NC(=O)CN2CCOCC2)cc1OCC
→ 103, -3, -2.8, i, 0.94, -23, 107
42. COc1ccc(NC(=O)Nc2ccccc2SC)cc1OC
→ 99, -4, nt, i, 0.92, nt, nt
43. Oc1c(C(c2ccco2)N2CCN(C(c3ccccc3)c3ccccc3)CC2)sc2ncnn12 (centres undefined)
→ 100, -4, -3.2, i, 0.55, nt, nt
44. CC1(C)CC(=O)C(C(=S)Nc2ccccc2)=C(NCCN2CCOCC2)C1
→ 108, 6, -0.8, i, 0.72, 0, 122
45. O=C(CSc1ncnc2c1oc1ccccc12)N1CCCc2ccccc21
→ 104, -10, -0.3, i, 0.81, -18, 140
46. c1ccc(SCCN2CCc3ccccc3C2)cc1
→ 119, -4, -0.9, i, 1, 43, 125
47. Cc1ccc(NC(=O)c2cccc(N3C(=O)C4C5CCC(C5)C4C3=O)c2)c(C)c1 (centres undefined)
→ 101, -8, -1.6, i, 0.95, nt, nt
48. COc1ccc(OC)c(NC(=S)N2CCN(C/C=C/c3ccccc3)CC2)c1
→ 101, -5, -2.2, i, 1.1, 14, 79
49. COc1ccc(CNc2nc3ccccc3n2CCN2CCCCC2)cc1
→ 103, -6, nt, i, 0.95, 20, 72
50. COC(=O)c1ccc(NC(=S)NCCc2ccccc2)cc1
→ nt, 2, -0.6, i, 0.96, nt, nt

(list continues)
Order of values: RGS16-Gao, PKD1 kinase inh, GALR2 agonist, HSV replic up, HSV replic up primary fold, INS promoter inh, INS promoter inh cell count
51. Cc1nc2c(C)cccc2cc1C(=O)N/N=C/c1cccnc1
→ 101, 3, -0.8, i, 0.92, -15, 178
52. Cn1cnc([N+](=O)[O-])c1Sc1nc2ccccc2[nH]1
→ 108, nt, nt, i, 0.73, nt, nt
53. CC(CC(=O)Nc1ccccc1C(F)(F)F)c1ccccc1 (centres undefined)
→ 91, -4, -0.4, i, 1.1, 30, 50
54. O=C(Nc1cccc(C(F)(F)F)c1)C(Sc1n[nH]c(=O)[nH]c1=O)c1ccccc1 (centres undefined)
→ 95, nt, nt, i, 1.1, nt, nt
55. CC(C)NC(=O)CSc1nc(N)c(-c2ccccc2)c(=O)[nH]1
→ 99, -3, nt, i, 0.95, nt, nt
56. CCOc1ccc(N2CC(C(=O)N3CCc4ccccc4C3)CC2=O)cc1 (centres undefined)
→ 101, 0, -3.1, i, 0.97, 26, 87
57. Cc1ccc(NC(=O)/C(C#N)=C(\N)C(Cl)(Cl)Cl)nc1
→ 85, 2, nt, i, 1.1, -50, 85
58. Cc1ccc(C2CC(c3ccco3)=NN2S(C)(=O)=O)cc1 (centres undefined)
→ 95, -5, -0.2, i, 1, 7, 130
59. CC(C)CC(=O)Nc1ccccc1Oc1ccccc1
→ 102, 0, 0.5, i, 1.2, -37, 158
60. CCOc1ccc(NC(=S)Nc2ccc(OC)cc2)cc1
→ 102, -6, nt, i, 0.91, nt, nt
61. CC(CCCC(C)(C)O)NC(=O)c1ccc(OC2CCN(C(=O)C3CC3)CC2)cc1 (centres undefined)
→ 106, -3, nt, i, 1.1, nt, nt
62. COc1cccc(CNCCO)c1OCc1ccc(Cl)cc1
→ 96, -10, nt, i, 0.92, 7, 102
63. CC(=O)Nc1ccc(N=Cc2nc(-c3ccc(C)cc3)oc2O)cc1
→ 111, 2, -0.5, i, 0.94, -43, 98
64. CN(C)CCCN(CCCN(C)C)C(=S)Nc1ccc(S(=O)(=O)N2CCOCC2)cc1
→ 100, nt, nt, i, 0.98, nt, nt
65. O=C(Nc1cccc([N+](=O)[O-])c1)c1ccc2nc(N3C(=O)CCC3=O)sc2c1
→ 100, -5, -0.8, i, 0.84, 39, 95
66. CC1C/C(=N/Nc2nc3ccccc3[nH]2)CC(C)(C)C1 (centres undefined)
→ 105, 4, -1.2, nt, nt, 31, 95
67. O=C(O)CC/C(=C\c1ccc(N2CCCC2)c([N+](=O)[O-])c1)c1nc2ccccc2s1
→ 107, 0, nt, i, 1, -35, 179
68. O=[N+]([O-])c1ccccc1Nc1c2ccccc2nc2ccccc12
→ 102, -3, nt, i, 0.86, nt, nt
69. Cn1c(=O)c2cc(S(=O)(=O)N3CCC(c4ccccc4)CC3)ccc2n(C)c1=O
→ 93, -1, -4.5, i, 0.96, -6, 154
70. COc1ccccc1CCc1nnc(CCC(=O)N(C)Cc2cccc3ncccc23)o1
→ 102, -3, nt, i, 0.91, nt, nt
71. COc1ccc(C2=NC(=O)/C(=C\c3cc(OC)c(OC)c(OC)c3)O2)cc1
→ 89, -6, -1.6, i, 0.93, -20, 114
72. CC1(C)CC(=O)C2=C(C1)NC1=C(C(=O)c3ccccc31)C2c1cc([N+](=O)[O-])ccc1O (centres undefined)
→ 111, nt, nt, i, 1.1, nt, nt
73. O=C(c1cccc2ccccc12)C1CCCN(C(=O)c2ccc(N3CCOCC3)cc2)C1 (centres undefined)
→ 102, -2, nt, i, 0.88, 33, 134
74. CCOC(=O)c1nnn2c1nc(N1CCN(c3ccccc3)CC1)c1ccccc12
→ 96, nt, nt, i, 1, nt, nt
75. Cc1ccc2c(c1)c1c(n2CC(O)CNC2CCCC2)CCCC1 (centres undefined)
→ 104, nt, nt, i, 0.71, nt, nt
76. CSc1cccc(NC(=S)NCCCN2CCN(c3ccc(F)cc3)CC2)c1
→ 105, 1, nt, i, 0.98, nt, nt
77. COc1ccc(N(CC(=O)NC2CCCCC2)S(=O)(=O)c2cccnc2)cc1
→ 53, 6, -4.6, i, 0.89, nt, nt

Source: PubChem BioAssay
